# UCH37 DUB inh – human UCH37 deubiquitinating enzyme inhibition | inhibition, % (no concentration beside the values) | Q9Y5K5 | purified proteasome/UCH37, Ub-AMC cleavage fluorescence | hit rate 0.33% among 330,000;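 active means mean of two replicates above 20%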;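 further: 0% = compound-free wells with enzyme and 100% = wells lacking proteasome; stock transfer was 100 nL into about 20 µL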
# Target sequence (Q9Y5K5 whole entry, looked up): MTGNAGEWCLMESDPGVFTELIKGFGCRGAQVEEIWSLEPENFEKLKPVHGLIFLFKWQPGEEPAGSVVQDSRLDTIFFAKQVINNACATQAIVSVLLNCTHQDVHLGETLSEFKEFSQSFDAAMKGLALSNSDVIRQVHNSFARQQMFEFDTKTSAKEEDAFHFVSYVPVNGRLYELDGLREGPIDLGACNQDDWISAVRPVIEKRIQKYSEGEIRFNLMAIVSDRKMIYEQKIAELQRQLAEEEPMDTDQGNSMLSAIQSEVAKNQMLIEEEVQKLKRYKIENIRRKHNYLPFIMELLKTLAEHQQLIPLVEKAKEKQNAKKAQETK
#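 Material: Human UCH37 enzyme supplied as purified proteasome complex | Schedule: 30 min compound-proteasome preincubation then 25 min substrate reaction, room temperature | Detection: AMC fluorescence from Ub-AMC cleavage, excitation 355 nm, emission 460 nm | Benchmarks: Wells without proteasome as full block, compound-free enzyme plus substrate as uninhibited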
# Beta2AR agonist – human beta-2 adrenergic receptor agonism by FAP. Am2.2-beta2AR cells, FAP receptor internalization, flow cytometry; reference of the scale not given here. response, % (no concentration beside the values). hit rate 0.43% among 340,000. AID 504454;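 active means response above a set limit, near 3 SD of response in nonfluorescent compounds, cut at about 42% in these data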;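 further: stock transfer was 100 nL into about 11 µL; a reference agonist was the positive control; negative values mostly stem from fluorescent compounds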
# Target sequence (P07550 whole entry, looked up): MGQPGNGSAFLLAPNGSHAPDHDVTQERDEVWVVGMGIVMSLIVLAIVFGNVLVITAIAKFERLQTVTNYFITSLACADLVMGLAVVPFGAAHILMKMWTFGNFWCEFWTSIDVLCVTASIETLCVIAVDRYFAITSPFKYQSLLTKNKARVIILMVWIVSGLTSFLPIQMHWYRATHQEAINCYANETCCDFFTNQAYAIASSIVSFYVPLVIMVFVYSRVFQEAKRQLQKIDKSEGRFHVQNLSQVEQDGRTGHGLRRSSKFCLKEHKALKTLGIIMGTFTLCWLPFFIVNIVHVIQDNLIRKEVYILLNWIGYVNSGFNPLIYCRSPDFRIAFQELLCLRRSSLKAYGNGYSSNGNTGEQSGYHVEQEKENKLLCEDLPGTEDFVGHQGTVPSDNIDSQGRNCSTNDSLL
# HNF4A DNA FP – change in binding of human HNF4 alpha to DNA; hit rate 0.3% among 360,000; HNF4a-FITC DNA binding, fluorescence polarization, 1 h; P41235; activity change, % at 10 µM; in the data active means activity change above about 30%, passing the limit was not always enough;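 further: controls were the assay level and a saturating level of protein; the project sought stronger binding though the title names inhibitors; some compounds called inactive have numbers as strong as hits; positive values seem to mean higher polarization but the record does not say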
# LANA-H2A inh – blocks KSHV LANA binding to histone H2A/H2B. Q9QR71. AID 2629. cell-free LANA-H2A/H2B peptide, fluorescence polarization. hit rate 0.6% among 320,000. inhibition, % (test concentration not listed); in the data active means inhibition mostly above about 10%, no sharp cut-off; inactive means mostly below about 6.7%;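 further: stock transfer was 7.5 nL into about 10 µL; 0% = median of vehicle wells and 100% = median of positive control wells; one replicate is shown; the record names a cut of 25% in any replicate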
# FGF22 binding – shifts melting point of recombinant human FGF22; recombinant FGF22 thermal shift, SYPRO orange fluorescence; percent of sucrose octasulfate shift, DMSO zero; calls only at 9.99 µM; Q9HCT0; hit rate 1.5% among 340,000;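 active means melting point raised past a set limit in the mean and every replicate; inconclusive means no clear call; three in four hits are not shown here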
# ALR inh – human ALR oxidase inhibition via reduced H2O2 | P55789 | purified ALR, DTT oxidation, H2O2 HRP-luminol luminescence | inhibition, % (concentration not given with the values) | hit rate 3.8% among 290,000 | AID 485317;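 active means mean and each replicate at 75% or more; inconclusive means only one of the two met; inactive means neither met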;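 further: stock transfer was 7.5 nL into about 7.5 µL; 0% = neutral wells and 100% = wells with inactivated enzyme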
# Target sequence (P55789 whole entry, looked up): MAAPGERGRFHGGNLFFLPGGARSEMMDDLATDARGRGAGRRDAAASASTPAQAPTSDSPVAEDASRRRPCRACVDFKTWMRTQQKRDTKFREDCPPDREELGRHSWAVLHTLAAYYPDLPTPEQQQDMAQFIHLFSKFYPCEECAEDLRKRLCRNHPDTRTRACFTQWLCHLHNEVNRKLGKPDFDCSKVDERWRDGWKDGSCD
# Ecoli growth – E. coli growth inhibition; Escherichia coli growth, OD600, 23 h; hits give low values; OD600 absorbance (no concentration beside the values); hit rate 0.21% among 330,000; AID 1053175;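 active means OD600 absorbance below the run mean of sample wells minus 3.6 SD, in any replicate, cut at about 0.56 in these data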;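 further: stock transfer was 300 nL into about 60 µL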
# Starred values were filed as active, the others as inactive; i = inactive; ? = inconclusive; / = no result given. A portion of the library, so the mix of outcomes need not match the whole.
SMILES,UCH37 DUB inh,Beta2AR agonist,HNF4A DNA FP,LANA-H2A inh,FGF22 binding,ALR inh,Ecoli growth
COc1ccc(C(=O)ON=C(C)c2nccs2)cc1,4.0,/,1.4,/,i,/,0.69
COc1ccc(N2CCN(C(CNC(=O)C(=O)NC3CC3)c3ccco3)CC2)cc1 (centres undefined),0.2,0,-0.5,3.2,i,34,0.62
COc1cc(OC)nc(Oc2ccccc2C(=O)Oc2ccc(F)cc2Cl)n1,0.6,5,2.6,0.6,i,1,0.7
Cc1cccc(C)c1N(C(=O)c1ccco1)C(C(=O)NC1CCCC1)c1ccncc1 (centres undefined),4.4,2,-4.0,4.7,i,/,0.67
Cc1ccc(NC(=S)N2CCC(N(C)CC3CCCO3)CC2)cc1C (centres undefined),1.2,1,0.7,-0.5,i,-1,0.69
CC(C)NC(=O)c1cc(-c2ccc(Br)cc2)on1,0.8,2,-0.7,-1.6,/,-1,0.68
COc1cccc(N2CCN(C(=O)CCCCCNc3nc(=S)[nH]c4ccccc34)CC2)c1,0.6,10,-2.9,-5.6,i,3,0.7
COCCNc1nc2c(c(=O)n(C)c(=O)n2C)n1Cc1cccc(C(F)(F)F)c1,3.6,2,-0.2,0.9,/,17,0.7
CCn1c(SCC(=O)N(C)C)nc2cc(S(=O)(=O)N3CCCCC3)ccc21,/,-5,-0.8,0.8,/,-6,/
CC(C)c1ccc(O)c(N)c1,0.0,1,2.8,0.8,/,-2,0.62

# Arranged by the number under HNF4A DNA FP (high to low): three from the list above
Molecule | HNF4A DNA FP
COc1ccc(C(=O)ON=C(C)c2nccs2)cc1 | 1.4
Cc1ccc(NC(=S)N2CCC(N(C)CC3CCCO3)CC2)cc1C (centres undefined) | 0.7
CC(C)NC(=O)c1cc(-c2ccc(Br)cc2)on1 | -0.7

# (list continues)
SMILES,UCH37 DUB inh,Beta2AR agonist,HNF4A DNA FP,LANA-H2A inh,FGF22 binding,ALR inh,Ecoli growth
COc1ccc(-c2nnc(-c3ccccc3O)o2)cc1,-231,-1,1.1,2.0,i,-2,0.7
CC(C)C(NC(=O)c1ccc(F)cc1)C(=O)NCC1CCCO1 (centres undefined),1.7,-7,-6.7,8.8,i,5,0.7
O=C(Cc1cccs1)NCc1ccc(F)cc1,1.3,-4,4.4,11,/,-13,0.68
COc1cccc(/C=N/NC(=O)CNC(=O)c2ccco2)c1O,/,-1,3.8,-0.8,i,63,/
CCCCOC(=O)c1ccc(NC(=O)C(=O)NCc2cccnc2)cc1,1.1,2,0.8,-3.6,i,8,0.74
O=C(c1ccccc1NS(=O)(=O)c1ccc(Cl)cc1)N1CCc2ccccc21,4.0,6,1.8,6.7,i,-2,0.66
COc1ccccc1NS(=O)(=O)c1cc(NC(=O)Cc2n[nH]c(=O)c3ccccc23)ccc1Cl,1.7,8,3.1,-2.2,i,-25,0.67
Cc1ccccc1OCCC(=O)OCC(=O)Nc1ccc(N2CCOCC2)cc1,/,0,0.0,4.3,i,55,/
CN(C)c1ccc(Cc2cc3c(O)ccc(O)c3cc(Cc3ccc(N(C)C)cc3)c2=O)cc1,/,18,-31,/,i,/,/
COc1ccc(-c2cc(-c3ccccc3)nc(NN)n2)cc1OC,1.8,-2,3.5,2.0,i,33,0.71
Cc1ccc(S(=O)(=O)CCC(=O)OCCOc2cccc(Br)c2)cc1,1.4,-5,2.3,/,i,-3,0.66
COCCN1C(=O)N[C@@H](c2ccco2)C(C(=O)OC)=C1C,2.3,-9,1.8,2.3,i,-3,/
Cc1cc(C(=O)NNC(=S)NCC2CCCO2)cs1 (centres undefined),-2.7,-1,-1.2,1.5,/,25,0.66
COC(=O)CN1C(=O)[C@H]2[C@@H](/C=C/c3ccccc3)N3C(=O)CN(CC4CC4)C(=O)[C@@]3(Cc3ccccc3)[C@H]2C1=O,2.7,1,-0.3,4.0,i,4,/
COc1ccc(NC(=O)c2cc(OC)c(OC)c(OC)c2)cn1,5.8,4,1.6,-5.0,i,-17,0.67
Cc1ccc(CCNC(=O)c2ccc3nc4ccccc4c(=O)n3c2)cc1,-148,-3,-0.6,7.2,i,/,0.69
O=C(CN1C(=O)NC2(CCCC2)C1=O)NCc1ccc(F)cc1,3.1,3,0.4,1.6,i,5,0.68
CCOC(=O)C1CCN(C(=O)CN(c2ccc3c(c2)OCCO3)S(C)(=O)=O)CC1,3.0,1,1.8,/,i,/,0.68
COc1ccccc1N(C(=O)c1ccco1)C(C(=O)NC1CCCCC1)c1cc(OC)c(OC)c(OC)c1 (centres undefined),1.0,9,1.8,-0.6,i,-7,0.7
c1ccc2c(c1)CNc1ccccc1-2,4.2,-2,4.5,/,i,/,0.68
COc1ccc(S(=O)(=O)NCC(=O)N(CC(=O)NCc2ccco2)C2CCCC2)cc1,4.6,-2,-3.6,-3.8,i,2,0.67
O=C(CN1C(=O)NC(Cc2ccccc2)C1=O)Nc1ccc(OC(F)(F)F)cc1 (centres undefined),/,2,-1.5,0.3,i,0,/
COc1ccccc1OCc1ccc(C(=O)NC(C)c2ccccc2)o1 (centres undefined),2.8,2,0.5,-1.0,i,/,0.65
CCOc1ccc(NS(=O)(=O)c2ccc(C(=O)NCC(c3cccs3)N3CCOCC3)cc2)cc1 (centres undefined),3.8,0,-1.0,3.4,i,-11,0.71
COc1ccc(CCNC(=O)c2nnn(-c3cc(C)cc(C)c3)c2N)cc1OC,2.5,11,1.2,-0.2,/,-5,0.69
Clc1ccc(CNc2ccc(N3CCN(Cc4ccccc4)CC3)cc2)cc1,5.4,-3,-3.0,-3.3,i,43,0.66
COC(=O)C1C(=O)CC(C)(O)C(C(=O)OC)C1c1ccccc1F (centres undefined),1.9,7,-0.9,1.8,/,-22,0.73
Cc1ccc(NC(=O)Cn2c(=O)cnc3ccccc32)cc1S(=O)(=O)N1CCOCC1,-4.7,19,0.3,-3.4,i,-1,0.69
COc1cc(/C=N/n2c(C)nc3ccccc3c2=O)ccc1O,/,-4,-0.3,-1.0,i,/,/
CCOc1ccccc1C(=O)N1CCC(C(=O)c2ccc(F)cc2)CC1,3.0,-6,-0.3,2.3,/,/,0.73
COc1ccccc1N1CCN(C(=O)c2cc(S(=O)(=O)N3CCCCC3)ccc2C)CC1,3.0,5,-1.1,-1.9,i,5,0.71
CC(Oc1ccccc1)c1ccnn1S(C)(=O)=O (centres undefined),0.1,5,2.4,1.4,/,-11,0.68
CCOC(=O)COc1ccc2cc(C(=O)OCC)c(=O)oc2c1,-221,9,1.4,-4.1,/,-12,0.72
Nc1cc(C(=O)OCC(=O)NNC(=O)c2cccs2)ccc1Cl,-11,1,-0.3,-0.2,i,1,0.67
O=C(N/C(=C/c1ccccc1)C(=O)N1CCCCC1)c1ccc(Br)o1,2.1,-5,0.4,-3.1,i,-4,0.71
Cc1ccccc1Cn1cc(NC(=O)c2noc3c2CC(C(C)(C)C)CC3)cn1 (centres undefined),-7.9,-5,-1.8,-1.7,i,-10,0.73
COC(=O)C(NC(=O)c1ccccc1C)(Nc1ncc(S(=O)(=O)c2ccc([N+](=O)[O-])cc2)s1)C(F)(F)F (centres undefined),6.9,-2,2.5,2.4,/,-53,0.73
O=C(Cc1ccc(NC(=O)C2CCCN(C(=O)C3CCCC3)C2)cc1)Nc1cccc(C(=O)N2CCCC2)c1 (centres undefined),0.0,-8,0.8,/,i,/,0.69
O=C(CN1CCCC1)N/N=C/c1c(O)ccc2ccccc12,/,-14,9.9,-4.4,/,47,/
CC(OC(=O)Cc1n[nH]c(=O)c2ccccc12)C(=O)Nc1cccc([N+](=O)[O-])c1 (centres undefined),3.8,9,0.8,1.2,i,-7,0.68
CC1=NS(=O)(=O)NC(C)(C)C1,/,-6,-1.3,/,i,/,/
CC(OC(=O)c1cccc(-n2cnnn2)c1)C(=O)c1ccccc1 (centres undefined),0.7,5,4.9,-1.9,i,-5,0.61
CCc1nnc2n1N=C(c1ccc(-c3cc(Cl)ccc3Cl)o1)CS2,6.1,2,2.0,0.2,/,/,0.7
CCN(CC(=O)Nc1c(F)cccc1F)C(=O)CCc1nc2cc(S(=O)(=O)N3CCOCC3)ccc2n1C,0.1,-6,-0.2,-4.3,/,-1,0.73
Cc1c(Cl)cccc1NC(=O)CSc1sc2c(O)cc(=O)[nH]c2c1C#N,9.2,-6,-4.9,3.8,/,?,0.71
COc1ccc(Nc2nc(C)c3ccccc3n2)cc1,-0.7,0,3.0,0.2,/,36,0.71
Cc1cc(C)cc(NC(=O)N2CCC(NC(=O)c3ccco3)CC2)c1,2.2,14,-0.1,2.8,i,59,0.62
Cc1cc2c(N=NC(=O)CCc3ccccc3)c(O)[nH]c2cc1Br,5.9,3,2.3,8.7,/,-4,0.75
O=C(Cc1ccc([N+](=O)[O-])cc1)N/N=C/c1cccnc1,/,-4,1.9,2.9,i,-13,/
CSc1nc(C)c(C(=O)C[n+]2ccccc2)cc1C#N,3.5,-10,-0.6,-0.6,i,-18,0.72

# One compound at a time, from the list above. Order of screens: UCH37 DUB inh	Beta2AR agonist	HNF4A DNA FP	LANA-H2A inh	FGF22 binding	ALR inh	Ecoli growth
# Shown for CSc1nc(C)c(C(=O)C[n+]2ccccc2)cc1C#N : 3.5	-10	-0.6	-0.6	i	-18	0.72
# Shown for CC(OC(=O)c1cccc(-n2cnnn2)c1)C(=O)c1ccccc1 (centres undefined) : 0.7	5	4.9	-1.9	i	-5	0.61
# Shown for Cc1cc(C)cc(NC(=O)N2CCC(NC(=O)c3ccco3)CC2)c1 : 2.2	14	-0.1	2.8	i	59	0.62

# Next records.
SMILES,UCH37 DUB inh,Beta2AR agonist,HNF4A DNA FP,LANA-H2A inh,FGF22 binding,ALR inh,Ecoli growth
O=c1c2cc3c(=O)n(-c4ccccc4O)c(=O)c3cc2c(=O)n1-c1ccccc1O,/,9,-4.0,-4.0,i,26,/
CC1=NNC(=O)C1CC(=O)N/N=C(/C)c1cccc([N+](=O)[O-])c1 (centres undefined),/,-3,-0.1,4.1,i,34,/
Cc1c(C(=O)N(Cc2ccccc2Cl)C2CCS(=O)(=O)C2)oc2ccccc12 (centres undefined),0.9,3,5.6,-8.0,i,-14,0.68
O=C(CSc1nnc2ccc(-c3ccccn3)nn12)Nc1ccc(F)cc1F,-2.7,-3,-0.6,1.0,i,-7,0.65
COc1cc(Cl)ccc1OCc1cc(C(=O)N(C)CCc2cnn(C)c2)no1,1.1,0,-2.6,-0.4,i,-5,0.7
NS(=O)(=O)c1ccc(CCNC(=O)CNC(=O)c2ccc(Br)o2)cc1,0.4,-3,2.3,23*,/,1,0.69
CC(=O)c1cc(C#N)c(SCC(=O)O)nc1C,4.1,2,-0.8,-2.5,/,-18,0.68
C=CCn1nnnc1SCC(=O)Nc1ccccc1C(=O)OC,-0.8,0,-3.0,-2.1,/,-16,0.7
COc1ccc(N(CC(=O)Nc2ccc3c(c2)OCO3)S(=O)(=O)c2ccccc2)cc1OC,-2.0,-1,1.3,-9.6,i,-6,0.7
COc1ccc(-c2cc(C(F)(F)F)c3c(n2)sc2c(O)cc(=O)[nH]c23)c(OC)c1,-33,5,90,-9.8,/,/,0.68
CCn1c(CNC(=O)c2ccc(F)cc2)cc2ccccc21,1.5,2,3.0,1.9,i,-4,0.66
Cc1csc(SC(C)c2nc3scc(-c4ccccc4)c3c(=O)[nH]2)n1 (centres undefined),1.5,7,5.3,2.4,i,/,0.69
COc1cc2cc(C#N)c(SCC(=O)N3CCOCC3)nc2cc1OC,-16,-2,1.9,6.5,/,-8,0.69
O=C(NCCNc1ccc([N+](=O)[O-])cc1)c1ccccc1F,3.5,-7,0.5,2.5,i,-3,0.66
COc1ccc(NS(=O)(=O)c2cccc(C(=O)N3CCCC(C)C3)c2)cc1 (centres undefined),2.8,-3,4.5,7.4,i,22,0.62
Clc1ccc(-c2csc(N3CCOCC3)n2)cc1,2.4,4,2.7,/,i,/,0.71
CC1SC(c2ccc(Cl)cc2Cl)NC1=O (centres undefined),1.8,-1,0.1,4.3,/,-5,0.72
COc1ccc(NC(=S)Nc2cnc3ccccc3c2)c(OC)c1,-7.3,6,-1.2,2.5,i,1,0.68
